Source: PubChem BioAssay (National Center for Advancing Translational Sciences (NCATS))
Six1-Eya2 blk: blocks human Six1 binding to Eya2 | AlphaScreen GST-Six1/His-Eya2 binding, biochemical; active compounds read low; control for the full effect not named in the record | Q15475+O00167 | activity change, % (test concentration not listed) | 360,000 compounds, 0.56% hits; in the data active = activity change below about -65%; inconclusive = about -30% to -65%; inactive = above about -30%
Target sequence (O00167 whole entry, looked up): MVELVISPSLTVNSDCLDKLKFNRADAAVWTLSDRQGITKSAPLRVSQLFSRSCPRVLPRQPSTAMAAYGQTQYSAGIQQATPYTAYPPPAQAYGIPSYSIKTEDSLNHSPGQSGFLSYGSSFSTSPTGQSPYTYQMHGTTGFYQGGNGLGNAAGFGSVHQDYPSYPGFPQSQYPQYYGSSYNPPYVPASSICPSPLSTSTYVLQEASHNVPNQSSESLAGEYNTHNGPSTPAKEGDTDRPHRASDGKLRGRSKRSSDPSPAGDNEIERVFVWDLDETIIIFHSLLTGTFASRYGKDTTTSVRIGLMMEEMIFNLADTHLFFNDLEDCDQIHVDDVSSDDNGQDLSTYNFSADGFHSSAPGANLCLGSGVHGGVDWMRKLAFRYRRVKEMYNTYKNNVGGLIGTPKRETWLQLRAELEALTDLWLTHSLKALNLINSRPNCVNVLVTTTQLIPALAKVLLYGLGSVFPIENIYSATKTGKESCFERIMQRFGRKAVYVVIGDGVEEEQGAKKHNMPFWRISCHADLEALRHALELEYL
Target sequence (Q15475 whole entry, looked up): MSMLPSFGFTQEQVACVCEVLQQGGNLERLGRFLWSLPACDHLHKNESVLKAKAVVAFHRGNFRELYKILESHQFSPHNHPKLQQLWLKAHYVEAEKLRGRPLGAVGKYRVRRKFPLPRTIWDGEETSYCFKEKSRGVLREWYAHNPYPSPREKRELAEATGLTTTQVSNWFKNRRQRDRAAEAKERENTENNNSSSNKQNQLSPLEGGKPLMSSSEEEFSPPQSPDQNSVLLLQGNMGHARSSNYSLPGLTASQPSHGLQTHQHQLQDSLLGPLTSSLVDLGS
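Homogeneous AlphaScreen proximity assay pairing GST-Six1 with His-tagged Eya2 (added as 5X mix: 250 nM and 500 nM) in 50 mM Tris pH 8.0, 300 mM NaCl, 1 mM TCEP. Glutathione donor and nickel acceptor beads; 1 h, 37 °C, dark.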
CtBP-E1A inh: CtBP/E1A binding inhibition | AlphaScreen GST-E1A/His-CtBP binding, 1536-well; active compounds read low; control for the full effect not named in the record | activity change, % (test concentration not listed) | 340,000 compounds, 0.49% hits; in the data active means activity change below about -65%; inconclusive means about -30% to -65%; inactive means above about -30%
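AlphaScreen with 125 nM GST-E1A and 125 nM His-CtBP (5X stocks) in Tris pH 8.0, 300 mM NaCl, BSA, Tween 20, TCEP. Compounds preincubated 2 h at 37 deg C, then glutathione donor/nickel acceptor beads added for 1 h at 37 deg C in dark.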
* marks the source's active call; other numbers are inactive results; ? = inconclusive. % is scaled to controls: 0 for no effect and ±100 for the full control effect. This is a subset; the hit share may differ from the screen's.

SMILES	Six1-Eya2 blk	CtBP-E1A inh
COc1ccc(C(C(=O)Nc2ccc3c(c2)OCCO3)n2c(=O)c(-c3ccco3)nc3ccccc32)cc1 (stereo not given)	-6.7	0.0
Cc1ccc(S(=O)(=O)N2C[C@H]3n4c(=O)ccc(=O)n4C[C@H](OC(=O)NC4CCCC4)[C@@]3(O)C2)cc1	-0.4	2.3
Cc1noc(C)c1S(=O)(=O)N(C)C[C@H]1OCc2cn(nn2)CCCC(=O)N([C@H](C)CO)C[C@@H]1C	0.6	5.0
Nc1nc2ncccn2c1-c1ccc(F)cc1	-0.6	-11.5
COC(=O)[C@@]12C[C@@H](CC(=O)N3CCOCC3)C(=O)N(Cc3cccc4ccccc34)C1=CCC(C)(C)C2	-3.5	-8.9
CSC[C@H]1CN(Cc2ccccc2)C(=O)[C@@H]1CC(=O)Nc1ccc(Br)cc1	0.0	1.1
COC(=O)[C@@]12C[C@@H](CC(=O)NCc3ccc(C)o3)C(=O)N(Cc3ccco3)C1=CCC(C)(C)C2	-3.9	-17.8
CCCCCCCCN1C(=O)[C@H](CC(=O)N2CCSCC2)C[C@@]2(C(=O)OC)CC(C)(C)CC=C12	-10.1	-4.3
CC(C)(C)NC(=O)C(c1ccccc1F)n1c(=O)c(-c2cc3ccccc3[nH]2)nc2ccccc21 (stereo not given)	38.0	38.8
CC(C)(C)NC(=O)C(c1ccc(C(F)(F)F)cc1)n1c(=O)c(-c2ccco2)nc2ccccc21 (stereo not given)	2.2	13.5
C[C@H]1CN([C@@H](C)CO)C(=O)CCCn2nncc2CO[C@H]1CN(C)C(=O)Nc1ccc2c(c1)OCO2	2.7	-23.9
CCCCNC(=O)C1C(c2ccc(OC)cc2)=Nc2ccccc2N1C(=O)c1ccc2ncccc2c1 (stereo not given)	-12.9	-7.6
COc1ccc(NC(=O)C(c2ccnc3ccccc23)n2c(=O)c(-c3ccco3)nc3ccccc32)cc1 (stereo not given)	-5.4	-6.7
COCCCNC(=O)C[C@@H]1C[C@@]2(C(=O)OC)CC(C)(C)CC=C2N(Cc2cccc3ccccc23)C1=O	3.1	3.4
CCOC(=O)[C@]12CCCC=C1N(Cc1ccccc1)C(=O)[C@H](CC(=O)N1CCN(C(=O)C3CC3)CC1)C2	-3.8	-5.5
CCCc1nc2ccccc2n1C(C)C(=O)NC(C)(C)C (stereo not given)	-4.7	6.3
O=C1c2c(-c3ccc(Br)cc3)noc2CCN1Cc1cn(Cc2ccccc2)nn1	19.1	6.4
C[C@H](CO)N1C[C@H](C)[C@H](CN(C)S(=O)(=O)c2cccc(F)c2)Oc2ncc(-c3cccc(C(=O)N(C)C)c3)cc2C1=O	5.0	-8.1
CCCCCNC(=O)C(c1ccc(-c2ccccc2)cc1)n1c(=O)c(-c2ccccc2)nc2ccccc21 (stereo not given)	3.6	-2.0
Oc1ccc(Br)c(CN2CCN(c3ncc(Cc4ccccc4)cn3)CC2)c1	-1.6	-21.3
O=c1[nH]nc2c3ccccc3occ1-2	-8.1	-1.3
Cc1ccc(S(=O)(=O)C[C@@H]2OC[C@H](Cc3ccccc3)N2S(=O)(=O)c2ccc(C)cc2)cc1	-3.2	2.6
CCC(C(=O)NCc1ccccc1)n1c(Cc2cc(F)cc(F)c2)nc2ccccc21 (stereo not given)	-0.7	0.2
COc1ccc(C(C(=O)NC2CCCC2)n2c(CSCCOc3ccccc3)nc3ccccc32)cc1 (stereo not given)	-9.2	0.6
Cc1cc(NC(=O)OC(C)(C)C)c(-n2nnnc2C(C(=O)c2ccccc2)N2CCOCC2)cc1C (stereo not given)	-5.8	3.9
SMILES	Six1-Eya2 blk	CtBP-E1A inh
O=C(O)C1=CCC(c2ccc(Cl)c(Cl)c2)N(S(=O)(=O)c2ccc(F)cc2)C1c1cccc(F)c1 (stereo not given)	6.3	0.6
Cc1cccc(C)c1NC(=O)C(CCc1ccccc1)N1CCN(C)CC1 (stereo not given)	12.6	-3.7
O=C(C[C@H]1CC[C@H](NC(=O)Nc2ccccc2F)[C@@H](CO)O1)NCc1ccc(-c2ccccc2)cc1	-1.5	-1.0
CC(=O)N(C)C[C@H]1Oc2ncc(Br)cc2C(=O)N([C@H](C)CO)C[C@@H]1C	-0.1	4.3
CC(C)[C@@H](NC(=O)OC(C)(C)C)c1cc(C(=O)c2c(-c3ccccc3)[nH]c3ccccc23)c(N)s1	-19.4	-6.4
COC(=O)C[C@H]1C=C[C@H](NC(=O)Nc2ccccc2F)[C@@H](CO)O1	1.7	17.4
c1ccc(COc2ncnc3c2ncn3CCCNCc2cccs2)cc1	-3.4	-1.8
COc1ccccc1-c1cn(CC[C@@H]2CC[C@H](NC(=O)C3CCC3)[C@@H](CO)O2)nn1	11.6	-2.6
CCOC(=O)[C@]12CCCC=C1N(CCC1=CCCCC1)C(=O)[C@H](CC(=O)NCc1ccccc1)C2	-5.2	-2.9
COC(=O)C1(C(=O)OC)C[C@H](c2cccs2)N(Cc2ccccc2OC)[C@@H]1c1ccc(F)cc1	-5.5	-2.4
CCC(C(=O)NCc1ccccc1)n1c(-c2ccc3c(c2)CCO3)nc2ccccc21 (stereo not given)	1.6	5.8
O=[N+]([O-])c1ccc(Cl)c(CN2CCN(c3ncc(Cc4ccccc4)cn3)CC2)c1	-12.9	-9.4
COc1ccc([C@H]2C[C@H](O)[C@@H](n3cc(-c4ccc(F)cc4)nn3)CN2C(=O)C2CCCCC2)cc1	-4.2	6.4
O=C(Nc1ccc2ccccc2c1)C(c1ccccc1F)n1c(=O)c(-c2cc3ccccc3[nH]2)nc2ccccc21 (stereo not given)	50.0	21.2
CCCCCNC(=O)c1nc(-c2c(F)cccc2F)oc1-c1ccccc1	16.3	9.9
CCCCCNC(=O)C(c1ccc(OC)cc1)n1c(=O)c(-c2cc3ccccc3[nH]2)nc2ccccc21 (stereo not given)	26.9	14.5
CC(C)c1cc(Cn2c3ccccc3c(=O)n2C(C)Cn2cc(CCCC#N)nn2)on1 (stereo not given)	2.4	7.5
Cc1ccc(S(=O)(=O)N2C[C@@H](C)[C@]3(C2)[C@H](O)[C@H](OC(=O)NCc2ccco2)C[C@H]2C(=O)N(c4ccccc4)C(=O)[C@H]23)cc1	-2.1	1.7
COc1ccc(C2=Nc3ccccc3N(C(=O)c3cc(Cl)cc(Cl)c3)C2C(=O)NCc2ccccc2)cc1 (stereo not given)	-12.0	-3.5
O=C(NCc1ccccc1)C(CCc1ccccc1)n1c(=O)c(-c2cc3ccccc3[nH]2)nc2ccccc21 (stereo not given)	43.1	21.2
CCC(C)CN1C(=O)CN(S(C)(=O)=O)CC1(C)C(=O)NCc1ccccc1 (stereo not given)	6.9	-0.3
COC(=O)C[C@@H]1CC[C@H](NC(=O)c2ccc3c(c2)OCO3)[C@@H](CO)O1	3.6	1.0
CCOC(=O)N1CCN(C(C(=O)NC2CCCC2)C(C)C)CC1 (stereo not given)	-3.2	6.4
Cc1ccc(S(=O)(=O)N2CC3C(=O)C[C@@H](c4ccccc4)N(S(=O)(=O)c4cccc(Cl)c4)C3CC2c2ccccc2)cc1 (stereo not given in full)	-5.1	3.9
O=c1c(-c2ccco2)nc2ccccc2n1C(c1ccccc1)c1nc2ccccc2[nH]1 (stereo not given)	-3.4	6.1
SMILES	Six1-Eya2 blk	CtBP-E1A inh
CCOC(=O)C1=CCC(c2ccccc2)N(S(=O)(=O)c2ccc(C)cc2)[C@H]1CC (stereo not given in full)	12.5	-1.7
CCCCNC(=O)c1nc(-c2cccnc2OC)oc1-c1ccc(Cl)cc1	10.2	6.9
CCOC(=O)/C=C/c1cc(F)ccc1O	12.4	-14.4
COc1cc(C(=O)C(=O)N2CCN(c3ccccc3)CC2)cc2ccccc12	?	-8.2
C=CCNC(=O)c1ccsc1N	-0.5	-19.7
CCOC(=O)CC1(C)N(S(=O)(=O)c2ccc(C)cc2)c2ccccc2N1S(=O)(=O)c1ccc(C)cc1	10.2	-3.2
CN(C)CC(=O)N[C@@H]1C=C[C@@H](CC(=O)NCCN2CCCCC2)O[C@@H]1CO	2.2	-0.5
CCCCCNC(=O)C1C(=O)Nc2ccccc2C(=O)N1C(C)(C)C (stereo not given)	1.6	-0.2
COC(=O)C1(C(=O)OC)C[C@H](c2ccccc2)N(Cc2ccccc2OC)[C@@H]1c1ccccc1	1.3	-1.6
CCCCCCCCN1C(=O)[C@H](CC(=O)NCc2cccc3ccccc23)C[C@@]2(C(=O)OC)CC(C)(C)CC=C12	-1.4	-3.3
CCOC1=C2CN(S(=O)(=O)c3ccc(C)cc3)C(c3ccc(CC)cc3)CC2n2c(=O)n(-c3ccccc3)c(=O)n2C1 (stereo not given)	-17.2	-9.4
COc1ccc(C(C(=O)NC(C)(C)C)n2c(=O)c(-c3cc4ccccc4[nH]3)nc3ccccc32)cc1 (stereo not given)	56.0	20.3
COC(=O)C1(C(=O)OC)c2ccccc2N(S(=O)(=O)c2ccc(C)cc2)C1CC(=O)c1ccccc1 (stereo not given)	-5.4	2.5
CC(=O)N1c2ccccc2N=C(c2ccc(C(F)(F)F)cc2)C1C(=O)NC(C)C (stereo not given)	-0.5	7.5
COc1ccccc1C(CC(=O)c1ccccc1)C(=O)c1ccccc1 (stereo not given)	15.0	0.0
Cc1cccc(C)c1N1C(=O)c2ccccc2NC(=O)C1C(=O)Nc1ccc(N2CCOCC2)cc1 (stereo not given)	-4.1	-3.6
COc1ccc(CN2C(=O)CSCC2(C)C(=O)Nc2c(C)cccc2C)cc1 (stereo not given)	0.8	7.5
COC(=O)[C@@]12C[C@@H](CC(=O)NCCC(C)C)C(=O)N(Cc3ccco3)C1=CCC(C)(C)C2	-6.3	-0.9
COc1cccc(Cn2c(C(C)n3c(-c4cnccn4)nc4ccccc43)nc3ccccc32)c1 (stereo not given)	-7.7	-17.8
Cc1cc2c(cc1C)-n1nnnc1C(N1CCCC1)C(=O)N2 (stereo not given)	4.6	4.3
CCN(CC)C(=O)C1=C(C)N(Cc2ccc(OC)cc2)C(=O)C(CC(=O)NC(c2ccccc2)c2ccccc2)C1 (stereo not given)	-2.2	-1.2
CCc1c(-c2cccc(OC)c2)ncn1Cc1cccc(-c2ccccc2)c1	-5.1	-11.1
CCN1CCC[C@H]1CNCCCn1cnc2c(SC)ncnc21	0.2	1.3
CCCCNC(=O)C(NC(=O)c1cnccn1)C(=O)c1ccccc1 (stereo not given)	3.3	3.2
Nc1nc2ncccn2c1-c1ccc(F)c(F)c1	-10.8	6.8
SMILES	Six1-Eya2 blk	CtBP-E1A inh
CCCCCNC(=O)C1C(=O)Nc2ccccc2C(=O)N1c1c(C)cccc1C (stereo not given)	2.9	-4.4
COc1ccc(C(=O)NCCNc2nc3cc(C)cc(C)c3cc2C#N)c(OC)c1	-2.7	-17.4
Cc1cn([C@H]2C[C@H](O)[C@@H](CNCc3cccn3-c3nccs3)O2)c(=O)[nH]c1=O	5.1	-0.6
Cc1[nH]c2ccccc2c1C(=O)c1cc([C@H](NC(=O)OC(C)(C)C)C(C)C)sc1N	-28.0	-23.1
CC(C)NC(=O)C1(C)CN(S(C)(=O)=O)CC(=O)N1C1CC1 (stereo not given)	-2.1	0.8
COc1ccc(C(C(=O)c2ccccc2)c2ccccc2)cc1 (stereo not given)	23.5	31.0

At a glance, some entries already given:
SMILES	Six1-Eya2 blk	CtBP-E1A inh
Cc1cccc(C)c1N1C(=O)c2ccccc2NC(=O)C1C(=O)Nc1ccc(N2CCOCC2)cc1 (stereo not given)	-4.1	-3.6
COc1ccc(CN2C(=O)CSCC2(C)C(=O)Nc2c(C)cccc2C)cc1 (stereo not given)	0.8	7.5
COC(=O)[C@@]12C[C@@H](CC(=O)NCCC(C)C)C(=O)N(Cc3ccco3)C1=CCC(C)(C)C2	-6.3	-0.9
COc1cccc(Cn2c(C(C)n3c(-c4cnccn4)nc4ccccc43)nc3ccccc32)c1 (stereo not given)	-7.7	-17.8
Cc1cc2c(cc1C)-n1nnnc1C(N1CCCC1)C(=O)N2 (stereo not given)	4.6	4.3
CCN(CC)C(=O)C1=C(C)N(Cc2ccc(OC)cc2)C(=O)C(CC(=O)NC(c2ccccc2)c2ccccc2)C1 (stereo not given)	-2.2	-1.2
CCc1c(-c2cccc(OC)c2)ncn1Cc1cccc(-c2ccccc2)c1	-5.1	-11.1
CCN1CCC[C@H]1CNCCCn1cnc2c(SC)ncnc21	0.2	1.3
CCCCNC(=O)C(NC(=O)c1cnccn1)C(=O)c1ccccc1 (stereo not given)	3.3	3.2
Nc1nc2ncccn2c1-c1ccc(F)c(F)c1	-10.8	6.8
CCCCCNC(=O)C1C(=O)Nc2ccccc2C(=O)N1c1c(C)cccc1C (stereo not given)	2.9	-4.4
COc1ccc(C(=O)NCCNc2nc3cc(C)cc(C)c3cc2C#N)c(OC)c1	-2.7	-17.4
Cc1cn([C@H]2C[C@H](O)[C@@H](CNCc3cccn3-c3nccs3)O2)c(=O)[nH]c1=O	5.1	-0.6
